# Ab BasE inh: BasE siderophore biosynthesis inhibition; purified BasE, fluorescence polarization binding displacement; inhibition, % (test concentration not listed); 84,000 tested, 0.1% active;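 active means both replicates above 25% with normal brightness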;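 further: 0% = negative plate control signal and 100% = positive plate control signal; stock transfer was 100 nL into about 30 µL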
# LANA-nucl inh: LANA-nucleosome interaction inhibition | AID 720717 | 51,000 tested, 0.3% active | z-score (concentration not given with the values) | FITC-LANA1-23 / chicken nucleosome fluorescence polarization; stronger effect = lower value;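 active means both repeat wells score below -2 in polarization z-score versus plate sample wells, excluding overly bright wells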;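 further: 100 nL library stock added to about 30 µL; numbers are from one replicate; some results filed as inactive read as strong as hits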
#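 Test system: purified chicken nucleosomes with FITC-labelled LANA N-terminal peptide (1-23); Input: 240 nM purified chicken nucleosomes (480 nM peptide binding sites), final; Medium: TEN-BT buffer, pH 7.5; Timing: 10–45 min, room temperature; Technique: fluorescence polarization, 480 nm excitation, 535 nm parallel and perpendicular emission; Replication: duplicates.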
# Active calls of the source: *; / = not tested or not shown; & = joins results of further samples.
# The first 4 entries, ahead of the listing:
SMILES,Ab BasE inh,LANA-nucl inh
N#CC(C(=O)Nc1ccccc1)=C1Nc2ccccc2N1,31*,/
CN(Cc1ccccc1)c1ncnc2onc(-c3cccc(Cl)c3)c12,-2.2,1.2
O=c1c(-c2ccccc2Cl)coc2cc(O)ccc12,7.7,5.7
CC(C)C(=O)N1CCCSC1=Nc1ccccc1,0.1,/

# The whole of this part, from the first entry:
SMILES,Ab BasE inh,LANA-nucl inh
N#CC(C(=O)Nc1ccccc1)=C1Nc2ccccc2N1,31*,/
CN(Cc1ccccc1)c1ncnc2onc(-c3cccc(Cl)c3)c12,-2.2,1.2
O=c1c(-c2ccccc2Cl)coc2cc(O)ccc12,7.7,5.7
CC(C)C(=O)N1CCCSC1=Nc1ccccc1,0.1,/
CN(C)c1ccc(C=Nc2ccccc2)cc1,-0.8,/
COc1ccc(C(=O)N/N=c2/c(=O)c(=O)c3ccccc23)cc1,-2.0,/
FC(F)(F)c1cc(-c2ccccc2)n2c(n1)nc1ccccc12,0.7,/
CCn1c(SC)nc2c(c1=O)C1(CCCC1)Cc1ccccc1-2,2.3,-0.49
FC(F)(F)c1cc(C(F)(F)F)n2[nH]c(=S)nc2n1,-1.8,-0.31
O=C(COc1ccc(S(=O)(=O)N2CCOCC2)cc1Cl)N1CCOCC1,2.6,-0.72
COc1cc(CCNC(=O)c2cnn3ccccc23)cc(OC)c1OC,-0.3,-0.021
Cc1ccc(NC(=O)CSC2CCS(=O)(=O)C2)cc1Cl (stereo not given),-1.4,-1.2
C/C(=N\N=C(/N)SC1CC(=O)N(C)C1=O)c1ccc(F)cc1 (stereo not given),1.4,2.3
C=CCc1cccc2cc(NC(C)=O)c(=O)oc12,0.2,-1.1
Cc1cc(OCC(=O)N(C(C)C)C(C)C)cc(C)c1Br,1.0,-1
O=C(C[n+]1ccccc1)Nc1ccccc1C(=O)O,0.9,/
COc1cc2c(cc1NC(=O)C(C)NCCc1ccc(F)cc1)oc1ccccc12 (stereo not given),0.7,/
Cc1cccc(NC(=O)CSc2nnc(CSc3nc(C)cc(C)n3)o2)c1,-1.1,0.73
Cc1cc(C)cc(-n2c(=O)c3oc4ccccc4c3n(CC#N)c2=O)c1,0.9,0.46
O=C1CCCC/C1=C/Nc1ccc(Br)cc1F,-1.0,-0.41
COc1ccccc1NC(=O)Nc1ccccc1OC,0.3,/
O=C(c1cc2c(c3ccccc13)NC1CCC2(C(F)(F)F)O1)C(F)(F)F (stereo not given),-0.5,0.17
Cc1ccc(C(=O)Nc2c(N)nc(SCC(=O)N3CCCc4ccccc43)[nH]c2=O)cc1,1.7,-0.64
CCOc1nc(Cl)nc(N(C2CCCCC2)C2CCCCC2)n1,2.7,2.7
CCOc1ccc2c(c1)-c1c(ssc1=Nc1ccc(NC(C)=O)cc1)C(C)(C)N2,2.4,/
# More structures:
SMILES,Ab BasE inh,LANA-nucl inh
CCN1C(=O)/C(=C\c2ccc(-c3ccc(Br)cc3C(=O)O)o2)N(CC)C1=S,-18,0.22
O=C(NCC1CCCO1)c1cc2ncc(Br)cn2n1 (stereo not given),4.5,-0.84
CCCN1CC=C2C(C#N)=C(N)C(C#N)(C#N)C(C(C)C)C2C1 (stereo not given),22,-4*
COc1ccccc1OCc1ccc(C(=O)Nc2ccccc2Cl)o1,-1.4,0.36
COc1cccc(NC(=O)CCNc2ccccc2C)c1,1.7,/
CC1(C(=O)Nc2nccs2)Cc2ccccc2C(=O)O1 (stereo not given),-1.0,0.28
Cc1nc(S(=O)(=O)N2CCC(NC(=O)c3ccccc3)CC2)cn1C,-0.2,/
CCCNC(=O)c1ccc(-c2nn(C)c(=O)c3ccccc23)cc1,2.8,-0.77
COc1ccc(C(=O)Cn2ccsc2=NC(C)=O)cc1,1.1,/
CCOC(=O)/C=C1\SCC(=O)N1CCOc1cccc(Br)c1,0.1,/
CCCCOC(=O)Nc1ccc(N(C)C)cc1,-0.6,-1
Cc1cc(NNC(=O)c2ccccc2)nc(NNC(=O)c2ccccc2)n1,4.0,0.26
CCN(CC)S(=O)(=O)c1ccc(-c2nnc(SCC(=O)O)n2CC)cc1,1.4,-2.2
c1ccc(CN2CCC(N3CCN(C4CCCCC4)CC3)CC2)cc1,-1.2,-2.3
CC(=O)Oc1ccc(C2OCC3C(C)C=C(C)C2C3C)cc1 (stereo not given),1.0,/
C=C(C)Cc1c(C)nc(N2CCCC2)[nH]c1=O,/,-0.23
c1cn(CCCNc2ncnc3sc4c(c23)CCCCC4)cn1,1.6,0.25
N#CCNC(=O)c1ccccc1Br,0.1,-0.099
CCCOc1ccccc1NC(=O)C1CC(=O)n2c(nnc2-c2ccc(OC)cc2)S1 (stereo not given),-2.9,/
O=c1ccc2nncn2[nH]1,-1.0,0.12
CN(C)C(=O)COc1ccc(S(=O)(=O)c2ccc(OCC(=O)N(C)C)cc2)cc1,-3.0,1.2
C#CCn1c(O)c(N=NC(=O)CNC(=O)c2ccccc2)c2ccccc21,-2.4,-0.056
CS(=O)(=O)NCc1nnc(SCC(=O)NC2CCCCC2)n1-c1ccc(F)cc1,0.4,0.056
CCOC(=O)N1CCN(C(=O)c2ccc3c(c2)NC(=O)C(CSCc2ccccc2F)N3)CC1 (stereo not given),-12,1.6
C#C[C@]1(O)CCC2C3CCc4cc(OC)ccc4C3CC[C@@]21C (stereo not given in full),/,-0.55

# Reprinted at random: two records from the list
SMILES,Ab BasE inh,LANA-nucl inh
CCCOc1ccccc1NC(=O)C1CC(=O)n2c(nnc2-c2ccc(OC)cc2)S1 (stereo not given),-2.9,/
CC1(C(=O)Nc2nccs2)Cc2ccccc2C(=O)O1 (stereo not given),-1.0,0.28

# (list continues)
SMILES,Ab BasE inh,LANA-nucl inh
OCCn1c(CNc2cc(Cl)ccc2N2CCCCC2)nc2ccc(Cl)cc21,0.6,/
CN1CCC(=NNC(=O)c2ccccc2)CC1,3.2,-0.76
CN(C)/C=C(\C#N)c1cccc(C(F)(F)F)c1,1.3,1.6
CCN=c1scc(-c2ccco2)n1/N=C/c1ccsc1,2.6,/
Cc1ccc(C(=O)C(C)Sc2nncn2-c2ccccc2)cc1 (stereo not given),-1.0,/
C=CCc1ccc(O)c(OC)c1,-2.0,0.39&-0.44
CCC1CCCCN1CN1C(=O)c2cc(Cl)c(Cl)cc2C1=O (stereo not given),-1.1,/
O=c1cc(CSc2nc3ccccc3o2)[nH]c(=S)[nH]1,2.7,/
COc1ccc(-c2csc(-n3[nH]c(C)c(C(c4ccc(Cl)cc4)C(C#N)C(N)=O)c3=O)n2)cc1 (stereo not given),35*,-0.008
CN(c1ccc(OCC(=O)N2CCOCC2)cc1)S(=O)(=O)c1ccc(F)cc1,1.2,/
CC1=Nn2c(nnc2-c2ccc(Cl)cc2)SC1,0.9,0.26
S=C(NCc1ccc2c(c1)OCO2)Nc1ccccc1,0.3,2.3
OC(CN1CCN(c2ccccc2)CC1)C(F)(F)F (stereo not given),/,-0.089
COc1cc(C(=O)OC(C)C(=O)N2CCCc3ccccc32)ccc1OCc1c(C)noc1C (stereo not given),-3.0,/
COc1ccccc1NC(=O)C(C)OC(=O)c1cccc(-n2cnnn2)c1 (stereo not given),-0.3,/
CCN(CC)S(=O)(=O)c1ccc(NC(=O)C2=NN(c3ccccc3)C(=O)CC2)cc1,-5.0,/
c1coc(CNc2c(-c3ccc(N4CCCC4)cc3)nc3cnccn23)c1,2.7,-0.05
CC(C)NC(=O)C1CCN(C(=O)N2CCOc3ccccc32)CC1,0.8,-0.53
Cc1nccn1-c1c2c(c(C#N)c3nc4ccccc4n13)CCCC2,-0.3,/
Cc1cccc(C(=O)NCc2nnc(SCC(=O)c3ccccc3)n2C)c1,3.2,-0.76
Cc1nn(-c2ccccc2)c2nc(Cl)c(C=C(C#N)C#N)cc12,1.3,/
COc1cc(S(=O)(=O)N2CCC(n3c(=O)[nH]c4ccccc43)CC2)ccc1-n1cnnn1,1.2,-1.1
CN(C)[C@@H]1C(=O)C(C(N)=O)=C(O)[C@@]2(O)C(=O)C3=C(O)c4c(O)ccc(Cl)c4[C@@H](O)[C@H]3C[C@@H]12,-0.1&1.6,0.0015&0.4&-0.048
CCOc1ccc2c(C)cc(=O)oc2c1,1.6,0.48
O=C(O)C(Oc1ccc2c3c(c(=O)oc2c1)CCCC3)c1ccccc1 (stereo not given),4.3,0.2
# Next compounds follow.
SMILES,Ab BasE inh,LANA-nucl inh
O=C(CC1c2ccccc2CCN1S(=O)(=O)c1cccs1)OCC(=O)c1ccc(Cl)s1 (stereo not given),0.0,/
O=C(/N=C1/c2ccccc2CN1c1ccccc1)Nc1ccccc1,-1.8,/
c1ccc(Nc2nc(N3CCCCC3)c3ccccc3n2)cc1,2.3,/
CCNc1nc2c(c(=O)n(C)c(=O)n2C)n1CC,2.8,0.5
COC(=O)c1sccc1S(=O)(=O)Nc1ccccc1,2.3,-0.61
COc1ccc(S(=O)(=O)Nc2cc(Cl)c3oc(=O)sc3c2)cc1OC,-0.7,-0.31
NC(=S)/C(=C\c1ccccc1O)C(=O)O,4.4,/
Cc1onc(-c2c(Cl)cccc2Cl)c1C(=O)OC1=CC(=O)CC(C)(C)C1,-0.2,/
CCC(C)(C)NC(=O)Cc1ccc2c(c1)OCCO2,-1.4,/
C[C@H](CS)C(=O)N1CCC[C@H]1C(=O)O,1.4,-0.51&-0.62&-0.54
Cn1c(CSc2ccccc2)nc2ccccc21,-5.3,-1.4
O=C1c2ccccc2C(=O)N1c1ccccc1,0.9,-0.24
C=CCNC(=O)CSc1nccc(-c2sc3sc(Br)c(C)c3c2C)n1,1.1,/
O=C(O)/C=C/c1cn(CCC(=O)O)nc1-c1ccccc1,2.1,/
CCSC1=C(C#N)C(c2cccs2)C(C(=O)Nc2ccccc2)=C(C)N1 (stereo not given),3.2,/
CC(C)C(Sc1nncn1C(C)C)C(=O)NC(N)=O (stereo not given),1.1,/
OCCn1nc2c3ccccc3nc-2n(-c2ccccc2)c1=S,2.5,/
CC(=O)N/C(N)=N\c1nc(=O)c2ccccc2s1,-0.4,-0.43
CN(CCO)c1nc(-c2ccccc2)c2cc(Br)ccc2n1,-0.1,-0.98
CCN1CCN(CCCNC(=O)c2ccc3nc(/C=C(\O)c4cccc(OC)c4)c(=O)[nH]c3c2)CC1,-13,-0.11
Cc1cc(-c2nnc(-c3ccccc3)c(-c3ccccc3)n2)c(C)o1,3.2,/
O=C1NC(=O)/C(=C\c2ccccc2C(F)(F)F)S1,3.2,-0.74
CCOC(=O)c1cnc(N2CCc3ccccc3C2)nc1N,2.8,-0.28
CC(OC(=O)C1=Cc2ccccc2OC1)C(=O)NCC1CCCO1 (stereo not given),0.9,-0.34
Cc1cc(C(=O)OCC(=O)N(C)c2ccccc2)c2ccccc2n1,1.0,/

# Molecules from the list above containing a furan ring, fused or not (7):
SMILES,Ab BasE inh,LANA-nucl inh
COc1cc2c(cc1NC(=O)C(C)NCCc1ccc(F)cc1)oc1ccccc12 (stereo not given),0.7,/
Cc1cc(C)cc(-n2c(=O)c3oc4ccccc4c3n(CC#N)c2=O)c1,0.9,0.46
CCN1C(=O)/C(=C\c2ccc(-c3ccc(Br)cc3C(=O)O)o2)N(CC)C1=S,-18,0.22
COc1ccccc1OCc1ccc(C(=O)Nc2ccccc2Cl)o1,-1.4,0.36
CCN=c1scc(-c2ccco2)n1/N=C/c1ccsc1,2.6,/
c1coc(CNc2c(-c3ccc(N4CCCC4)cc3)nc3cnccn23)c1,2.7,-0.05
Cc1cc(-c2nnc(-c3ccccc3)c(-c3ccccc3)n2)c(C)o1,3.2,/

# Next part.
SMILES,Ab BasE inh,LANA-nucl inh
O=C(c1cccs1)N1N=C(c2ccccc2)CC1c1cccs1 (stereo not given),-1.0,-0.025
CC(=O)Nc1ccc(SCC(=O)c2cc(C)n(C)c2C)cc1,-0.8,/
CCCc1cc(=O)n2[nH]c(NC(=O)C(c3ccccc3)c3ccccc3)nc2n1,2.2,-0.42
CCCOc1ccc(/C=C/C(=O)Nc2ccc(S(=O)(=O)Nc3ncccn3)cc2)cc1,1.8,/
Cc1cc(C)n2nc(SC(C)C(=O)NC(=O)NC3CCCCC3)nc2n1 (stereo not given),0.6,/
C/C(=N\NC(=O)Cc1csc(N2CCOCC2)n1)c1ccccc1,0.2,/
CCCCNC(=O)Nc1nc(-c2ccc(C)cc2)c(-c2ccc(C)cc2)o1,-0.5,/
CN(C)S(=O)(=O)c1ccc(NC(=O)C2CCC2)cc1,0.9,1.4
CN(C)S(=O)(=O)c1ccc(C(=O)Nc2[nH]nc(N3CCCC3)c2C#N)cc1,-4.1,/
CC1=CC(=O)C(C(=O)/C=C/c2ccccc2)C(=O)O1 (stereo not given),2.2,/
CC(C)c1nc(NCc2ccccc2)c(C#N)c2c1CCCC2,1.6,0.065
CCN(CC)CCN1C(=O)C2C3c4ccccc4C(c4ccccc43)C2C1=O (stereo not given),0.2,-0.41
Cc1ccc(CC(C#N)Sc2n[nH]c(-c3ccccc3F)n2)cc1 (stereo not given),1.5,/
Cc1onc(C(N)=O)c1C(=O)Nc1cccc(C(F)(F)F)c1,/,0.48
CCOc1ccc(-c2ccc(=O)n(CC(N)=O)n2)cc1,-0.9,-0.7
ClC1=NN(c2ccccc2)CC1,2.5,-0.61
COC(=O)c1cc(Cl)c(NC(=S)NC(=O)C(C)(C)C)cc1OC,-3.3,/
CCCn1c(SC)nc2ccccc2c1=O,-3.3,/
CCOC(=O)COn1c(=O)c(-c2ccc(Cl)cc2)[n+]([O-])c2ccccc21,3.4,-0.63
O=C(CCC(=O)c1ccccc1)c1ccccc1,-0.2,-0.2
CCCCCCCCCCCCCCCC[N+](C)(C)CCN(Cc1ccc(OC)cc1)c1ncccn1,-15,-0.33

# High-throughput results deposited in PubChem BioAssay by ICCB-Longwood Screening Facility, Harvard Medical School.

# A portion of the library; count on the stated rates, not on these rows.
